Screens deposited in PubChem BioAssay by several laboratories.
GALR2 agonist: activates the human galanin receptor 2 | 140,000 tested, 0.48% active | AID 803 | GALR2-expressing cells, agonist activation read-out | O43603 | activation, %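 (tested at 5 µM)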;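 active = above mean plus 3 SD of all compounds, about 5% in these data, not always enough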;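 also: 0% = vehicle buffer wells and 100% = reference agonist at full effect; tested in CHO reporter cells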
INS promoter inh: TRM-6 insulin promoter activity inhibition; TRM-6 cells (human fetal islet line), insulin promoter-eGFP reporter, imaging; reporter expression induced with tamoxifen; inhibition, % at 2 µM; 130,000 tested, 0.9% active; AID 1273;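 active = inhibition above the mean plus 3 SD, with well images judged a real hit on visual review, cut at about 60% in these data, passing the limit was not always enough; inconclusive = inhibition over the cutoff but images rejected on review; inactive = inhibition not above the cutoff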
RGS16-Gao: RGS16-Galphao interaction regulator (human) | bead-based flow cytometry RGS16-Galphao binding, fluorescence; actives lie on both sides | binding response (% of control), % at 10 µM | 220,000 tested, 0.38% active | O15492+P09471;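 active = below 25% or above 175%, edge rows of some plates excepted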;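 also: Galphao activated by GDP with aluminum fluoride before binding; 100% = wells without compound and 0% = beads without RGS; some results beyond the cut were filed as inactive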
HSV replic up: HSV replication enhancement | HSV replication augmentation in cells, fold increase | maximum fold increase | 220,000 tested, 0.005% active | AID 1956;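 active = peak rise of 1.5-fold or more in the series; inconclusive = self-fluorescent or not available for retest; tested in PC3 cells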;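 also: first round at 10 µM; read as green reporter fluorescence; hits show the peak of a series up to 25 µM; 1 = signal of infected wells without compound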
PKD1 kinase inh: PKD1 (human) kinase inhibition; Q15139; PKD1 kinase fluorescence polarization assay; inhibition, %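 (about 10 µM by stock and volumes)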; 200,000 tested, 0.056% active; AID 797;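 active = inhibition of 50% or more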;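 also: controls were vehicle for no effect and a reference inhibitor for full effect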
Target sequence (Q15139 whole entry, looked up): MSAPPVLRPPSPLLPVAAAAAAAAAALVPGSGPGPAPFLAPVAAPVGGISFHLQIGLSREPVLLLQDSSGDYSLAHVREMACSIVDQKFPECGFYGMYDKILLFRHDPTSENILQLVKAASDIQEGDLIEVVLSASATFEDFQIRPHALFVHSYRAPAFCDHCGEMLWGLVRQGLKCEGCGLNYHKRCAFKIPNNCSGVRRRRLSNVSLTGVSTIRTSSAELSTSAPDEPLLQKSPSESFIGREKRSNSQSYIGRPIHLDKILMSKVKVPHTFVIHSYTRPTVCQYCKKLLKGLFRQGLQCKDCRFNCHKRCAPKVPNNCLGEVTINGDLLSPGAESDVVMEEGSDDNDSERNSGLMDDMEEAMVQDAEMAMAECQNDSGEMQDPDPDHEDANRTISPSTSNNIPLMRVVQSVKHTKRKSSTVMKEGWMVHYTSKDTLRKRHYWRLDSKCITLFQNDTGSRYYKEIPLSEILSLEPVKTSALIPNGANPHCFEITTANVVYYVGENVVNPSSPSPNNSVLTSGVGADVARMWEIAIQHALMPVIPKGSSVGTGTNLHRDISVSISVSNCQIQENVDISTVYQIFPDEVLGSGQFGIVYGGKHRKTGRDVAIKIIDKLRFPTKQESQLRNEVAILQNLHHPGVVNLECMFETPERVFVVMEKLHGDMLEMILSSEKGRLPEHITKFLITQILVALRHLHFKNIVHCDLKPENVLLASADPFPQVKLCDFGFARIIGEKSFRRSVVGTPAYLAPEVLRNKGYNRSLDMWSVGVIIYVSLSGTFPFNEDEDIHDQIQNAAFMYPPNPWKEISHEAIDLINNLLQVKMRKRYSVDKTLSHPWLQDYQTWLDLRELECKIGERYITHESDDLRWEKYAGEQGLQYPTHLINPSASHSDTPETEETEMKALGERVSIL
INS promoter inh cell count: second read-out of INS promoter inh, no call of its own (marks repeat the call); normalized cell count, %; measured here: cell count, toxicity; reference of the scale not given here;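 cells exposed to compound for 48 h; stained nuclei by imaging scaled within each plate; lower means fewer cells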
HSV replic up primary fold: further read-out of HSV replic up, marked with its call; fold increase; compound at 10 µM; measured here: primary screen fold increase 10 uM; tested in PC3 cells;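 GFP signal in the first replicate; 1 = infected wells without compound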
* marks the source's active call; other numbers are inactive results; i = inactive; ? = inconclusive; . = not tested or not shown; & = joins results of further samples. These rows are one share of the data, so the mix of outcomes need not match the whole.

Compound,GALR2 agonist,PKD1 kinase inh,HSV replic up,INS promoter inh,HSV replic up primary fold,RGS16-Gao,INS promoter inh cell count
O=c1[nH]c(=O)n(Cc2ccc(F)cc2)c(O)c1C=NCCCO,-1.2,-2,i,21,0.95,107,123
C=C(c1ccccc1)P(=O)(O)O,-2.0,7,i,50,0.94,149,90
CCN1CCN(c2cc(N3CCCC3)c([N+](=O)[O-])cc2F)CC1,-1.5,-6,i,-56,0.96,96,91
O=c1[nH]c(=S)n(-c2ccccc2)c(O)c1C=NCc1ccccn1,.,.,i,.,0.98,114,.
S=P(Nn1cnnc1)(c1ccccc1)c1ccccc1,.,-2,i,.,1,94,.
CCC(=O)N1c2ccc(S(=O)(=O)CCC(=O)N3CCC4(CC3)OCCO4)cc2CC1C (centres undefined),-2.9,14,.,-69,.,110,52
CCC12CN3CCN(CC(C3)/C1=N\O)C2,0.0,0,i,.,0.92,104,.
CCCCn1c(O)c(C(=O)/C=C/c2c[nH]c3ccccc23)c(=O)[nH]c1=O,.,.,i,.,1.2,98,.
O=c1[nH]c(=S)n(-c2ccccc2F)c(O)c1C=NCc1ccco1,-0.1,-4,i,0,1.1,95,96
CCC(CC)N1CCN(C(=O)Cc2ccccc2)CC1,4.8,-3,.,17,.,184,86
C=CCN1C(=O)C2(C(C(=O)OCC)=C(N)Oc3ccccc32)c2c1c1ccccc1oc2=O (centres undefined),-3.0,0,i,-320,0.9,95,54
CC(C)C(=O)c1cn(Cc2ccccc2C#N)c2ccccc12,-0.3,-11,i,-6,0.98,109,158
O=c1cccc2n1CC1CC2CN(Cc2ccc3c(c2)OCO3)C1 (centres undefined),-0.5,3,i,.,1.1,.,.
C[N+]1(C)[C@@H]2CC(OC(=O)[C@H](CO)c3ccccc3)C[C@H]1[C@@H]1O[C@@H]12 (some centres undefined),-0.7,0,i,-5,0.81,109&90,122
N#CCP(=S)(c1ccccc1)c1ccccc1,0.6,-3,i,-33,1.1,103,79
CCOc1ccc2oc(C(=O)NN3C(C)CCCC3C)c(C)c2c1 (centres undefined),.,-4,i,.,0.92,99,.
O=c1[nH]c(=S)n(-c2ccc(Cl)cc2)c(O)c1C=Nc1ccc(N2CCOCC2)cc1,.,-7,i,.,0.95,112,.
C=C1C(=O)O[C@H]2[C@H]1[C@H](OC(=O)CC(=O)O[C@@H]1C[C@@H](C)[C@@H]3C=CC(=O)[C@@]3(C)[C@H]3OC(=O)C(=C)[C@H]13)C[C@@H](C)[C@H]1C=CC(=O)[C@]12C,.,.,i,.,0.62,97,.
Oc1ccc2c3c1OC1C(O)CC[C@@]4(O)[C@@H](C2)N(CC2CCC2)CC[C@]314 (some centres undefined),.,.,i,.,0.76,100,.
C=C(COC(C)=O)CC1CC(O)[C@]2(C)OC3CC4OC5C[C@]6(C)O[C@]7(C)CCC8OC9C[C@]%10(C)OC%11C(C)=CC(=O)OC%11CC%10OC9C[C@@H](C)C8OC7CC6O[C@]5(C)C/C=C\C4OC3CC2O1 (some centres undefined),.,.,i,.,0.81,105,.
O=C(NC12CC3CC(CC(C3)C1)C2)OC1CN2CCC1CC2 (centres undefined),.,.,i,.,0.9,128,.
O=C(c1ccc2c3c(cccc13)CC2)C1CCCN(Cc2ncc[nH]2)C1 (centres undefined),.,-5,i,.,0.86,104,.
COc1ccccc1-n1c(Cc2ccccc2)nc2ccccc2c1=O,.,-1,i,.,0.93,102,.
CN(C)C(Cc1ccccc1)C(=O)c1ccccc1 (centres undefined),-1.3,-2,i,22,0.94,103,113
Cn1c2ccccc2c2c(C(=O)N3CCC4(CC3)OCCO4)cn(C3CCCCC3)c(=O)c21,1.0,-1,i,-14,1,103,132
CCn1c(=O)cc(SCC(=O)N2CCC3(CC2)OCCO3)c2ccccc21,-1.8,-3,i,.,1,104,.
O=C(N/N=C/c1c(O)n(Cc2ccccc2)c(=O)[nH]c1=O)c1ccncc1,.,.,i,.,1.2,94,.
CCC(C)n1c(O)c(C(c2ccccn2)c2c(O)n(C(C)CC)c(=S)[nH]c2=O)c(=O)[nH]c1=S (centres undefined),-0.9,-5,i,50,0.92,104,71
COC12C(COC(N)=O)C3=C(C(=O)C(C)=C(N)C3=O)N1CC1C2N1C (centres undefined),.,.,i,.,1,97,.
COc1cccc(N2C(=O)NC(=O)/C(=C/c3ccc4c(c3)Cc3ccccc3-4)C2=O)c1,.,4,i,-10,1,90,126
CN1C(=O)C(=Cc2cccnc2)C(=O)N(C)C1=O,.,.,i,.,1,98,.
CCCCn1c(NC(=O)c2ccc(Br)o2)c(C(=O)OCC)c2nc3ccccc3nc21,-2.6,-8,i,-14,1.2,69,84
O=C(c1ccc(Cl)cc1)C12CN3CN(CN(C3)C1)C2,-0.7,6,i,.,0.95,99,.
CC(C)(C)C(=O)Cn1c(NCCCl)nc2ccccc21,.,-5,i,.,0.99,100,.
Cc1ccc(C(=O)O)cc1N=Nc1c(O)[nH]c(=O)[nH]c1=O,.,3,i,.,0.9,103,.
CC(C)C/C(=N/O)c1c[nH]c2ccccc12,0.6,-4,i,.,1,103,.
Cn1c(O)c(/C=N/NC(=O)c2ccncc2)c(=O)n(C)c1=S,.,.,i,.,0.96,97,.
CN1C(=O)C(=Cc2ccccc2OCCOc2ccc([N+](=O)[O-])cc2)C(=O)N(C)C1=O,.,-1,i,-38,0.95,102,99
CCCCCCn1c(O)c(/C=N/N2CCCCCC2)c(=O)[nH]c1=O,.,.,i,.,0.99,98,.
CN(C)c1ccc(NC(=O)CN2C(=O)CN=C(c3ccccc3)c3ccccc32)cc1,-0.4,-9,i,.,1,102,.
O=C1NC(=O)N(c2ccc3c(c2)OCO3)C(=O)/C1=C\c1ccc(N2CCCCC2)o1,0.1,-16,?,.,.,109,.
O=C(Nc1cccc(C(F)(F)F)c1)c1cccn(Cc2ccc3c(c2)OC(F)(F)O3)c1=O,-4.1,-4,i,-53,1.1,107,113
Cc1ccc(-n2nc(C)c3c2NC(=O)CSC3c2ccc3c(c2)OCO3)cc1 (centres undefined),-1.8,-6,i,.,1.1,101,.
COc1ccc(C(=O)C2CCCN(Cc3ccccn3)C2)c(OC)c1 (centres undefined),.,-11,i,-13,0.96,106,136
CC(C)(C)c1nc(NCc2ccc3c(c2)OCO3)c2nnn(Cc3ccccc3Cl)c2n1,-0.4,-12,i,14,0.93,104,93

The final 5 compounds of the part before are carried over, then new ones follow.
Compound,GALR2 agonist,PKD1 kinase inh,HSV replic up,INS promoter inh,HSV replic up primary fold,RGS16-Gao,INS promoter inh cell count
O=C1NC(=O)N(c2ccc3c(c2)OCO3)C(=O)/C1=C\c1ccc(N2CCCCC2)o1,0.1,-16,?,.,.,109,.
O=C(Nc1cccc(C(F)(F)F)c1)c1cccn(Cc2ccc3c(c2)OC(F)(F)O3)c1=O,-4.1,-4,i,-53,1.1,107,113
Cc1ccc(-n2nc(C)c3c2NC(=O)CSC3c2ccc3c(c2)OCO3)cc1 (centres undefined),-1.8,-6,i,.,1.1,101,.
COc1ccc(C(=O)C2CCCN(Cc3ccccn3)C2)c(OC)c1 (centres undefined),.,-11,i,-13,0.96,106,136
CC(C)(C)c1nc(NCc2ccc3c(c2)OCO3)c2nnn(Cc3ccccc3Cl)c2n1,-0.4,-12,i,14,0.93,104,93
COc1ccc(OCC(=O)N2CCN(C3CCC(c4ccccc4)CC3)CC2)cc1 (centres undefined),0.2,-8,i,-56,1,105,109
CC(=NCCN1CCOCC1)c1c(O)n(C2CCCCC2)c(=O)[nH]c1=O,-1.3,-6,i,.,1.2,89,.
COc1ccc(C2=NCc3nnc(C)n3-c3ccc(Cl)cc32)cc1Cl,-1.1,2,i,-29,0.96,111,99
O=C(CSC1c2ccccc2-c2ccccc21)N/N=C/c1ccccc1O,-0.7,-1,i,29,0.79,94,85
COc1ccccc1Cn1c(SCC#N)nc2cc(C(=O)N3CCC4(CC3)OCCO4)ccc2c1=O,.,12,i,0,0.94,102,104
COc1ccc(CC2(CCc3ccncc3)C(=O)NC(=O)NC2=O)cc1OC,.,2,i,.,0.96,109,.
COc1ccc(C2SCC(=O)Nc3c2c(C)nn3C2CCOC(C)(C)C2)cc1 (centres undefined),-1.6,12,i,-42,0.75,77,81
CN(C(=O)Oc1ccc(C(C)(C)C)cc1)c1ccccc1,.,-3,.,-18,.,102,116
CCC(=NCCCN(C)C)c1c(O)n(-c2ccc(OC)cc2)c(=O)[nH]c1=O,-0.2,-5,i,0,0.96,88,127
N=Cc1c(O)n(-c2ccccc2)c(=O)n(-c2ccccc2)c1=O,.,.,i,.,0.98,99,.
CC1=C(C(=O)O)N2C(=O)C(NC(=O)CCCC(=O)O)C2SC1 (centres undefined),.,-4,i,-40,0.92,102,122
CCc1ccc(N2C(=O)NC(=O)C(Cc3ccc(OC)cc3OC)C2=O)cc1 (centres undefined),-0.4,-4,i,-10,0.99,102,221
O=C(COC(=O)Cc1ccccc1)Nc1cccnc1Cl,.,-1,i,-36,0.94,108,219
O=C1C2CCCC1C(N1CCCC1)CC2 (centres undefined),0.9,1,i,-72,1,104,52
CC(=O)c1cc(C#N)c(N2CCN(C)CC2)nc1C,.,-4,i,.,0.84,99,.
C=CCn1c(O)c(C=NCCN(C)C)c(=O)[nH]c1=O,-2.1,-5,i,.,0.99,97,.
Cn1c(O)c(C=NCc2ccco2)c(=O)n(C)c1=O,-0.9,-1,i,-40,0.95,104,123
O=P(OCC(F)(F)C(F)F)(N1CCOCC1)N1CCOCC1,-2.7,-4,i,36,0.92,105,99
CCOC(=O)c1c(C)[nH]c(C(=O)C(Cc2ccccc2)N(C)C)c1C (centres undefined),-1.9,5,.,17,.,115,71
Cc1nc2ccccc2c(=O)n1-c1ccccn1,-0.7,-1,i,44,0.93,101,99
Cc1ccc(C2C(S(C)(=O)=O)=C(O)C(=O)N2c2ccccc2)cc1 (centres undefined) (tested in a mixture with another compound),-2.0,-9,i,.,0.89,100,.
CCC(=NCc1ccco1)c1c(O)n(C2CCCCC2)c(=O)[nH]c1=O,-1.8,-18,i,-7,1,95,63
O=C1CC(c2ccccc2)CN1 (centres undefined),.,.,i,.,1.1,103,.
CCN(CC)CCNC(=O)c1c(O)c2ccccc2n(Cc2ccccc2)c1=O,-1.8,2,i,20,0.9,100,65
O=C1Nc2ccc(Br)cc2C(c2ccccc2Cl)=NC1O (centres undefined),.,1,i,.,1,105,.
O=c1[nH]c(=S)n(Cc2ccco2)c(O)c1C=NCc1cccs1,-1.3,-12,i,28,0.94,.,115
CCOCCCN=Cc1c(O)n(Cc2ccccc2)c(=O)[nH]c1=O,-0.9,-9,i,-41,0.96,134,77
COC(=O)CSC1=NN1c1cc(C)nc(N)n1,.,-1,i,.,1.2,105,.
O=C(c1cc2nc(-c3ccccc3)cc(-c3ccccc3)n2n1)N1CCC2(CC1)OCCO2,-1.2,-6,i,-30,0.85,97,69
CN1C(=O)NC(=O)C2(Cc3ccccc3N3CCOCC32)C1=O (centres undefined),-0.5,1,i,14,0.9,268,139
CN(C(=O)Oc1ccc(C(=O)c2ccc(Cl)cc2)cc1)c1ccccc1,-1.1,-10,i,-3,0.99,113,137
Cc1cccc(CNCCc2ccccc2)n1,-0.8,-3,i,-8,1.1,34,114
Cc1cccc(CS(=O)(=O)Cc2ccc(C(=O)N3CCC4(CC3)OCCO4)o2)c1,0.1,0,i,.,0.95,99,.
O=C(Cc1ccccc1)Oc1cccc(N2C(=O)CCC2=O)c1,-1.4,-5,i,24,0.95,112,48
CC12CN3CC(C)(CN(C1)C3c1cccnc1)C2=O (centres undefined),-2.0,-13,i,61,0.97,109,78
O=c1[nH]c(=O)n(Cc2ccc(F)cc2)c(O)c1C=NCCCN1CCOCC1,-1.3,-10,i,-24,1,102,138
Cc1cc(/C=C2/C(=O)NC(=O)N(c3ccc(Br)cc3)C2=O)c(C)n1C,.,.,i,.,1,95,.
O=C(COc1ccc(Cl)cc1Cl)N1CCN(C/C=C/c2ccccc2)CC1,0.0,5,i,-6,0.85,96,51
